# Compound activity deposited in PubChem by National Center for Advancing Translational Sciences (NCATS).
# D2 ag: Beta-Arrestin HTS for Positive Allosteric Modulators of the Human D2 Dopamine Receptor: Agonists; DiscoveRx PathHunter D2 beta-arrestin, luminescence, 90 min; 100% = 57 uM dopamine signal; activation, % (no concentration beside the values); D(2) dopamine receptor (Homo sapiens), P14416; 360,000 tested, 0.084% active; in the data active = activation above about 40%; inconclusive = about 15% to 40%; inactive = below about 15%; note: compound concentration not given in the record; the text of the record calls up to 30% inactive
# Target sequence (P14416 whole entry, looked up): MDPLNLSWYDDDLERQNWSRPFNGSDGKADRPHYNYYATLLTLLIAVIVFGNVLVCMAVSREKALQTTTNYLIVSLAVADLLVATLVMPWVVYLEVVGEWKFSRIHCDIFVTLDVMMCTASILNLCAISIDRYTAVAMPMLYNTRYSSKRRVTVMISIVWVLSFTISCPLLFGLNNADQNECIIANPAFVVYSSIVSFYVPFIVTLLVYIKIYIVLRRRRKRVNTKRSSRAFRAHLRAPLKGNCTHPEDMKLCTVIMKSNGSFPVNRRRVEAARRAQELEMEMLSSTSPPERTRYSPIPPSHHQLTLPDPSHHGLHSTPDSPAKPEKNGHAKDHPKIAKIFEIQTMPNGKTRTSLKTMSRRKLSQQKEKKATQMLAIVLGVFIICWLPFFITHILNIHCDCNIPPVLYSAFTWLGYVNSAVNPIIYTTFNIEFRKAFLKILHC
#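 DiscoveRx PathHunter D2 beta-arrestin cells (2,100/well) attached overnight, then compound-stimulated 90 min at 37 C in HBSS/10 mM HEPES/0.1% Tween-20 buffer; beta-galactosidase complementation read by luminescence after 1 h at ambient temperature. Dopamine 57 uM final (EC100) as control.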
# gsp antagonist: qHTS for Antagonists of gsp, the Etiologic Mutation Responsible for Fibrous Dysplasia/McCune-Albright Syndrome: qHTS. gsp-mutant cells, cAMP HTRF, 30 min; control for the full effect not named in the record. Potency, µM (top dose mostly 76.9 µM), inactives show top-dose activity change, negative = inhibition, most hits filed as inhibitors. 340,000 tested, 0.4% active. AID 624288, 2012; active = falling curve of any shape with a large fitted effect; inconclusive = falling curve, mostly with a smaller effect; inactive = flat or rising curve; cell line not stated here;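 note: intracellular cAMP measured with PDE inhibitor Ro 20-1724 present during compound exposure; potency is the fitted concentration of half-maximal effect; % is set by controls: 0 for no effect and ±100 for the full control effect; nearly all actives have a fitted effect of over 65% in size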
#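 HTRF cAMP read-out (cAMP-d2 plus anti-cAMP antibody-K in lysis buffer, 30 min RT). Before lysis, cells are exposed to compounds with […] for 30 min at 37C in DPBS containing Ca/Mg, BSA and Tween 20.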
# Menin MLL FP FL: qHTS Assay for Inhibitors Targeting the Menin-MLL Interaction in MLL Related Leukemias: Competition With Fluorescein Labeled MLL-derived Peptide; FP activity change, % at 61.4 µM; Fluorescence polarization, fluorescein-MLL peptide displacement from menin; 290,000 tested, under 10 active; inconclusive = falling polarisation curve, or a change in total fluorescence; inactive = total fluorescence flat and polarisation flat or rising; no compound was filed as active; the % refers to the polarisation; negative = inhibition;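 note: % of control where 0% means no effect; inhibitors lower the polarisation; unlabelled MLL peptide was the positive control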
# ClpP mod: qHTS Assay for Activators of ClpP; ATP-dependent Clp protease proteolytic subunit (Bacillus subtilis (strain 168)), P80244; Potency, µM (top dose mostly 57.5 µM), without a hit: top-dose activity change, negative = active; AID 651965, 2013; 340,000 tested, 1.9% active; purified B. subtilis ClpP, FRET peptide cleavage, 20 min; active = well fitted falling curve with a large enough effect; inconclusive = small, poorly fitted or top-dose-only effect; inactive = no such curve, though single readings can be large or run the other way; note: potency is the fitted concentration of half-maximal effect; the source files actives as falling curves though it sought activators and does not explain the sign; nearly all actives have a fitted effect of over 65% in size; many hits overshoot -100%
# Target sequence (P80244 whole entry, looked up): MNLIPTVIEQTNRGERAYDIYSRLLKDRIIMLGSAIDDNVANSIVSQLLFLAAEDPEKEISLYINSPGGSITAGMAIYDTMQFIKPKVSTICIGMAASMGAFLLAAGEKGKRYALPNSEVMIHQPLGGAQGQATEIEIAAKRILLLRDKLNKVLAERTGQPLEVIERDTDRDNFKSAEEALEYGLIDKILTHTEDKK
#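 Purified B. subtilis ClpP, 10 microg/mL final in Tris/HCl pH8 with KCl, BSA, glycerol and Tween-20, cleaved an Abz/nitrotyrosine-quenched decapeptide. Fluorescence (ex 320, em 430) was read at 0 and 20 min at room temperature. Delta was normalized to 5.8 microM ADEP and DMSO/no-enzyme controls.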
# PINK1 modulator: A Quantitative High throughput Screen to Identify Chemical Modulators of PINK1 Expression; PINK1 immunofluorescence, high-content cytometry, 24 h; Potency, µM (doses to about 76.6 µM), for the others: at the highest dose activation (PINK1 increase), usual class: activators; 410,000 tested, 0.2% active; AID 624263, 2012; active = well fitted activation curve with a large enough effect; inconclusive = small, poorly fitted or top-dose-only effect; inactive = flat fitted curve, though single readings scatter; cell line not stated here;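 note: potency is the fitted concentration of half-maximal effect; % of control where 0% means no effect; nearly all actives have a fitted effect of over 65% in size; a mitochondrial uncoupler was the plate control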
#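 PINK1 protein level read as immunofluorescence by microplate cytometer in a fixed, stained stable cell line after 24 h exposure to five compound concentrations, with CCCP as control.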
# Sfp inh: qHTS Assay for Inhibitors of Bacillus subtilis Sfp phosphopantetheinyl transferase (PPTase) | 4'-phosphopantetheinyl transferase ffp (Bacillus subtilis), Q9F4F7 | Biochemical Sfp PPTase activity, qHTS | Potency, µM, inactives show max response, negative = inhibition, usual class: inhibitors | 310,000 tested, 3.5% active | AID 1490, 2009; active = well fitted inhibition curve with a large enough effect; inconclusive = small, poorly fitted or top-dose-only effect, or another doubt; inactive = no such curve, though single readings can be large or run the other way;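 note: the enzyme is Sfp with the accession as filed and its product quenches rhodamine fluorescence; potency is the fitted concentration of half-maximal effect; 0% = enzyme reaction without inhibitor and -100% = no enzyme wells; top concentration of the series not given in the record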
#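 Step 1, compound plus 15 nM Sfp-PPTase, 15 min, room temperature. Step 2, add rhodamine-CoA (5 uM) and BHQ-2-YbbR (12.5 uM). Step 3, read 525/598 nm fluorescence at 0 and 30 min.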
# gsp agonist: qHTS for Agonist of gsp, the Etiologic Mutation Responsible for Fibrous Dysplasia/McCune-Albright Syndrome: qHTS; gsp mutant cells, cAMP HTRF, 30 min; control for the full effect not named in the record; Potency, µM (highest dose often 76.9 µM), for inactives: top-dose activation (cAMP increase), usual class: activators; 340,000 tested, 0.13% active; AID 624287, 2012; active = well fitted activation curve with a large enough effect; inconclusive = small, poorly fitted or top-dose-only effect, or another doubt; inactive = no such curve, though single readings can be large or run the other way; cell line not stated here;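 note: phosphodiesterase inhibitor Ro 20-1724 added with compounds to block cAMP breakdown; potency is the fitted concentration of half-maximal effect; nearly all actives have a fitted effect of over 60% in size; about a fifth of the inactives were tested at one dose only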
#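 Cells in DMEM/10% FBS with G418 were pretreated with compounds in DMSO plus […] (300 uM stock) for 30 min at 37C. cAMP was measured by HTRF (cAMP-d2 plus anti-cAMP antibody-K) after 30 min at room temperature.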
# Starred values were filed as active, the others as inactive; ? = inconclusive; . = not tested or not shown; & = joins results of further samples; [ ] = dose if it differs, or a comment.
SMILES,D2 ag,gsp antagonist,Menin MLL FP FL,ClpP mod,PINK1 modulator,Sfp inh,gsp agonist
CN1C2C=C3C(C#N)=C(N)C(C#N)(C#N)[C@@H](c4ccsc4)[C@@H]3C1CC2 (stereo partly specified),-0.9,?,?,17%,-5.0%,8%,-13%
COc1cc(OC)cc(C(=O)NCC(=O)OCC(=O)/C=C2/N(C)c3ccccc3C2(C)C)c1,6.1,?,?,.,0.5%,12%,-7%
OCCNc1nc2ccc(Cl)cc2[nH]1,-0.8,12%,3.7,0.3%,3.8%[38.3 µM],-6%,-10%
COc1ccccc1N1CCN(CC(O)COc2ccc3c(C)cc(=O)oc3c2)CC1 (stereo unspecified),?,-6%,7.9,16µM*,-1.6%[38.3 µM],17%,-6%
Cc1onc(-c2ccccc2)c1C(=O)N1CCN(S(=O)(=O)c2ccc(OC(F)(F)F)cc2)CC1,1.3,-8%,-0.7,.,-1.4%,-6%,12%
Cc1ccc(C(C)C)cc2c(C)ccc1-2,-5.4,5%,-25&-1.4,-2.2%,1.8%&0.3%,-4%&3%,.
Cc1ccc2c(C)[nH]c(=O)cc2c1,-0.6,1%,2.3,19%,0.4%,19%,-5%
O=C(Cc1c[nH]c2ccccc12)N1CCc2ccccc21,2.7,-6%,4.1,-0.5%,0.1%,-21%,23%
CCN1C(=O)[C@H]2[C@@H](c3ccc(-c4ccc5c(c4)OCO5)c(OC)c3)N[C@@](CC(C)C)(C(=O)OC)[C@H]2C1=O,-0.8,-14%,.,4.9%,2.0%,.,.
COc1ccc(OC)c(S(=O)(=O)Nc2cccc3ccccc23)c1,-1.3,-4%,.,-2.5%,-0.4%,.,4%[15.4 µM]
O=C(NCc1ccc(Cl)nc1)c1ccc2nc([C@@H]3O[C@H](CO)[C@H](O)[C@H](O)[C@H]3O)[nH]c2c1,-6.0,.,.,-2.5%,-0.5%,.,.
Cc1cccc(OCCC(=O)Nc2ccc(S(=O)(=O)N3CCCC3)cc2)c1,0.8,-8%,0.6,1.0%,0.3%,4%,-40%[inhibitor]
C(=C\c1cc(/C=C/c2ccccc2)ncn1)/c1ccccc1,4.8,14%,4.4,35µM*,-1.3%,6%,-1%
O=C(CCc1ccccc1)NNC(=O)Nc1ccccc1,3.1,16%,4.5,.,-0.4%,23%,11%
Cc1ccc(C)n1NC(=O)c1ccco1,-2.2,-10%,0.9,-2.4%,-0.4%,16%,2%
CC(C)OC1(c2ccccc2)OC(=O)c2ccccc21 (stereo unspecified),-4.5,7%,-0.2,0.1%,1.3%,12%,14%
O=C(CC(=O)N/N=C/c1ccc(Cl)cc1Cl)NCc1ccccc1,-1.5,8%,4.1,1.6%,-0.7%,20%,-16%
COc1ccc2cc(C)c(SCC(=O)Nc3cc(C)on3)nc2c1,-2.8,13%,1.0,-0.9%,?,13%,?
Cc1noc(C)c1NC(=O)Nc1cccc2c1O[C@H](CN(C)C(=O)NC(C)C)[C@@H](C)CN([C@H](C)CO)C2=O,1.4,9%,.,-6.3%,-0.4%,.,7%
O=C(CSc1nnc2n1CCCN2C(=S)Nc1ccc(Cl)cc1)c1ccccc1,1.5,-26%,1.0,0.8%,7.3%,-2%,7%
Cn1c(O)c(N=Nc2nc(-c3ccccc3)cs2)c2ccccc21,-3.3,0%,-20,-3.5%,2.0%,56µM*,9%[15.4 µM]
Cc1ccc(-n2cc(CN3CCN(C(=O)c4ncn[nH]4)CC3)c(-c3ccc(F)cc3)n2)cc1,5.4,?,7.9,-10%,0.3%,16%,1%
COc1ccc(/C=C2\CCCC3C2=NN(C(=O)CSc2ncn[nH]2)C3c2ccc(OC)cc2)cc1 (stereo unspecified),6.1,?,2.3,-1.6%,-4.3%,-15%,-5%[15.4 µM]
COc1ccc(NC(=O)C2CCC(=O)N2S(=O)(=O)c2ccc(C)cc2)c(OC)c1 (stereo unspecified),-2.6,3%,-2.8,-2.1%,1.3%[38.3 µM],-5%,-14%
Nc1cc(C(=O)N2CCCC2)cc(C(=O)N2CCCC2)c1,0.1,6%,-0.8,-28%,2.2%[38.3 µM],9%,-10%

# Already shown: entries from further up.
SMILES,D2 ag,gsp antagonist,Menin MLL FP FL,ClpP mod,PINK1 modulator,Sfp inh,gsp agonist
CN1C2C=C3C(C#N)=C(N)C(C#N)(C#N)[C@@H](c4ccsc4)[C@@H]3C1CC2 (stereo partly specified),-0.9,?,?,17%,-5.0%,8%,-13%
COc1cc(OC)cc(C(=O)NCC(=O)OCC(=O)/C=C2/N(C)c3ccccc3C2(C)C)c1,6.1,?,?,.,0.5%,12%,-7%
OCCNc1nc2ccc(Cl)cc2[nH]1,-0.8,12%,3.7,0.3%,3.8%[38.3 µM],-6%,-10%

# Further results follow.
SMILES,D2 ag,gsp antagonist,Menin MLL FP FL,ClpP mod,PINK1 modulator,Sfp inh,gsp agonist
COc1ccc(CNC(=O)COC(=O)CCc2nc3ccccc3c(=O)[nH]2)cc1,-0.2,-7%,-3.4,.,-0.7%,28%,12%[15.4 µM]
Cc1c(NC(=O)c2ccc(-c3ccc([N+](=O)[O-])cc3Cl)o2)c(=O)n(-c2ccccc2)n1C,1.2,2%,-2.9,.,0.8%,0%,11%
O=C(NCc1cccc(F)c1)C1CCC(=O)N(CC2CCCCC2)C1 (stereo unspecified),-5.2,7%,.,-0.9%,0.9%,3%,-2%
COc1ccccc1Oc1ccc(Oc2ccccc2OC)cc1,1.9,-8%,0.6,.,-0.3%,13%,?
O=C(C1CCC1)N1CCN(Cc2ccccc2)CC1,1.7,17%,0.1,-1.4%,1.8%,-2%,?
NC(=O)COC(=O)c1ccccc1Oc1ccccc1,-4.0,0%,-3.7,0.8%,1.7%,20%,12%[15.4 µM]
Cc1cc(C)c(Cn2c(=O)n(CCCC(=O)NCc3ccco3)c(=O)c3ccccc32)c(C)c1,-5.2,3%,.,2.5%,9.5%,.,11%
Nc1nonc1-n1nnc(C(=O)N/N=C/c2cccs2)c1-c1ccc2c(c1)OCO2,-2.0,-26%,.,-0.5%,3.1%,8%,13%
Cc1cccc(OCCC(=O)OC(C)C(=O)Nc2ccc(Cl)cn2)c1 (stereo unspecified),4.2,0%,.,-0.5%,2.8%,.,1%
Cc1ccc(NC(=O)CCN2C(=O)C3C4CCC(C4)C3C2=O)cc1Cl (stereo unspecified),-5.8,23%,-3.2,0.9%,1.6%,12%,1%
O=C(O)CC(c1ccccc1)n1cccc1 (stereo unspecified),-1.5,-5%,3.1,-1.0%,1.2%,14%,-1%
COc1ccc(C(=O)Nc2ccc3c(c2)OCCO3)cc1Br,-3.7,-31%,1.3,1.5%,2.5%,17%,-18%
CN(C(=O)c1coc(=O)c2ccccc12)c1ccc(F)cc1,-1.5,2%,-2.5,-1.1%,-0.1%,13%,-1%[15.4 µM]
Cc1ccc(-n2nc3c(c2NC(=O)c2ccco2)CS(=O)(=O)C3)cc1C,-5.6,0%,.,-1.1%,-2.7%,15%,-4%
CS(=O)(=O)N1CCC(CO)(Cc2ccccc2C(F)(F)F)CC1,-3.2,3%,-9.1,0.4%,1.2%,-1%,-12%
COc1ccc(C)cc1Nc1c2c(nc3ccccc13)CCC2,-5.5,3%,0.3,-4.0%,?,1%,?
O=C(C1=C[C@H](c2csc3ccccc23)C[C@H](OCc2ccc(CO)cc2)O1)N1CCCCCCC1,0.5,-33%,.,-2.4%,0.9%,.,-63%[inhibitor]
CNC(=O)C1CC(=O)N/C(=N/N=C(\C)c2cccs2)S1 (stereo unspecified),-0.1,9%,4.5,-1.0%,-1.1%,-11%,-46%[inhibitor]
Cc1ccc(OCC(O)CN2CCN(c3ccc(C)cc3)CC2)cc1 (stereo unspecified),-2.5,13%,0.6,-1.4%,9.2%,5%,-1%
Cc1ccccc1S(=O)(=O)NC(=O)C1(C)CCN1C(=O)CC(c1ccccc1)c1ccccc1 (stereo unspecified),11,.,.,1.6%,-0.5%,.,.
Cc1ccccc1Nc1nn2c(=O)c3ccc(C(=O)N4CCCC(C)C4)cc3nc2s1 (stereo unspecified),-3.8,.,.,2.8%&2.5%,0.3%&-0.2%,.,24%
CCOC(=O)c1ccc(NC(=O)CC2C(=O)N(c3ccccc3)C(=O)N2CCCOC)cc1 (stereo unspecified),-1.1,-3%,1.9,1.0%,3.0%[38.3 µM],18%,-43%[inhibitor]
CCOC(=O)C1CCN(C(=O)CCS(=O)(=O)Cc2ccccc2)CC1,-2.3,4%,0.2,.,0.2%,17%,9%[15.4 µM]
COC(=O)c1cn(NC(=O)c2ccc3c(c2)OCO3)c(=O)c2ccccc12,-1.8,-12%,3.2,-8.0%,2.8%,7%,-6%
O=C(NNC(=S)NCc1ccco1)C(c1ccccc1)c1ccccc1,-4.1,.,-2.4,.,-0.7%,8%,9%[15.4 µM]
CC1CCc2onc(C(=O)NCc3ccco3)c2C1 (stereo unspecified),-3.9,4%,0.5,-9.1%,2.6%,0%,2%[15.4 µM]
O=C(NCCCNC(=O)c1cc(Cl)ccc1Cl)c1cnccn1,2.2,3%,?,.,1.1%,17%,?
O=c1c(=O)n(CCO)n(CCO)c(=O)n1CCO,4.5,.,.,-3.1%,4.5%,.,16%
Cc1cc2nccc(-c3ccc(Cl)c([N+](=O)[O-])c3)n2n1,-3.5,-18%,4.7,.,-0.7%,16%,-9%
